Bfl-1 A1 inh: inhibitors of the anti-apoptotic protein A1, read as caspase activation. AID 2462. MEF A1-2A-BIM cells, Caspase-Glo 3/7 luminescence, 3 h; percent of clofoctol response, vehicle zero. caspase activation, % (concentration not given with the values). actives 0.066% (n = 330,000);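 active = over half of replicate activation scores above 10%, or exactly half above 10 with the replicate mean above 10; inconclusive = replicate mean below 10 yet half the replicates above 10; inactive = over half of replicates below 10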;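 note: wells of about 30 µL received 50 nL stock; many hits fall short of the cut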
RanGTP-Impb inh: disruptors of Ran-importin-beta complex formation – biochemical, FRET, CFP-Ran, YFP-importin-beta, homogeneous, primary screen. AID 2216. inhibition, % (no concentration beside the values). cell-free CFP-Ran/YFP-importin-beta FRET ratio. actives 1.1% (n = 300,000);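 active = most replicates above 15%; inconclusive = exactly half above 15%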;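 note: 0% = DMSO wells and 100% = Ran loaded with GDP instead of GTP; wells of about 40 µL received 100 nL stock; the first replicate is given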
B2AR ag: human beta-2 adrenergic receptor agonism by FAP. P07550. actives 0.43% (n = 340,000). Am2.2-beta2AR cells, FAP receptor internalization, flow cytometry; reference of the scale not given here. AID 504454. response, % (no concentration beside the values);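 active = response above a set limit, near 3 SD of response in nonfluorescent compounds, cut at about 42% in these data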;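 note: stock transfer was 100 nL into about 11 µL; a reference agonist was the positive control; negative values mostly stem from fluorescent compounds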
Target sequence (P07550 whole entry, looked up): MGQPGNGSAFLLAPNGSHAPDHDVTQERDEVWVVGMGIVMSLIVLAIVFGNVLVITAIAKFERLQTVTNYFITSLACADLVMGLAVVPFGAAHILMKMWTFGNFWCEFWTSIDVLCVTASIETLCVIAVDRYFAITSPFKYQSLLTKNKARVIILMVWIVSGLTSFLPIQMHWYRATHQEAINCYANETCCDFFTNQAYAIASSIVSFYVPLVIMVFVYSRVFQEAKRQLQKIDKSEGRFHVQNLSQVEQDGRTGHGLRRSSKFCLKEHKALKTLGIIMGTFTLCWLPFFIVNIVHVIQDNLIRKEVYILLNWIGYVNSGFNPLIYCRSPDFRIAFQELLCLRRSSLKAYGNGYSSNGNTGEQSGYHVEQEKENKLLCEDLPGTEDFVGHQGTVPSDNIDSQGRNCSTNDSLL
T cruzi repl: blocks replication of Trypanosoma cruzi; T. cruzi beta-gal in NIH3T3, luminescence, 90 h; inhibition, % (concentration not given with the values); AID 1885; actives 1.4% (n = 300,000);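 active = mean inhibition across valid replicates above about 55%, limit read from the data; inconclusive = mean below that limit but half or more replicates reach it; inactive = mean below it, under half of replicates reach it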;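 note: signal also drops with host cell toxicity which is not excluded here; 0% = plate median of DMSO wells and 100% = zero luminescence signal; higher percent means less beta-gal luminescence so fewer parasites; stock transfer was 50 nL into about 50 µL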
LANA-H2A inh: blocks KSHV LANA binding to histone H2A/H2B | cell-free LANA-H2A/H2B peptide, fluorescence polarization | inhibition, % (concentration not given with the values) | actives 0.6% (n = 320,000); in the data active = inhibition mostly above about 10%, no sharp cut-off; inactive = mostly below about 6.7%;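 note: stock transfer was 7.5 nL into about 10 µL; 0% = median of vehicle wells and 100% = median of positive control wells; one replicate is shown; the record names a cut of 25% in any replicate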
Beta apoptosis: blocks beta cell apoptosis. INS-1E cytokine-induced death, ATP luminescence, 48 h; percent of positive-control rescue, neutral wells zero. protection from apoptosis, % (test concentration not listed). actives 0.8% (n = 300,000);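 active = all replicates at 75% or more, or half of them and the mean; inconclusive = half reach 75% but not the mean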;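 note: 0% = cytokine-treated negative control wells and 100% = positive control rescue; higher means more ATP so stronger rescue from cytokine killing; wells of about 40 µL received 100 nL stock; the first replicate is given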
Calb FLC: C. albicans growth modulation with fluconazole. C. albicans CaCi-2 (fluconazole-resistant clinical isolate) + fluconazole, Alamar Blue growth, 48 h. growth inhibition, % (test concentration not listed). actives 0.57% (n = 300,000);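 active = most replicates above 75%; inconclusive = exactly half above 75%; inactive = most below 75%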;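 note: all wells also contain fluconazole at 8 µg/ml as a sub-toxic cotreatment; 0% = median of DMSO wells and 100% = median of geldanamycin control wells; wells of about 8 µL received 7.5 nL stock; the first replicate is given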
UCH37 DUB inh: inhibitors of human deubiquitinating enzyme UCH37. Q9Y5K5. purified proteasome/UCH37, Ub-AMC cleavage fluorescence. inhibition, % (test concentration not listed). actives 0.33% (n = 330,000). AID 588478;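 active = mean of two replicates above 20%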;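 note: 0% = compound-free wells with enzyme and 100% = wells lacking proteasome; stock transfer was 100 nL into about 20 µL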
Target sequence (Q9Y5K5 whole entry, looked up): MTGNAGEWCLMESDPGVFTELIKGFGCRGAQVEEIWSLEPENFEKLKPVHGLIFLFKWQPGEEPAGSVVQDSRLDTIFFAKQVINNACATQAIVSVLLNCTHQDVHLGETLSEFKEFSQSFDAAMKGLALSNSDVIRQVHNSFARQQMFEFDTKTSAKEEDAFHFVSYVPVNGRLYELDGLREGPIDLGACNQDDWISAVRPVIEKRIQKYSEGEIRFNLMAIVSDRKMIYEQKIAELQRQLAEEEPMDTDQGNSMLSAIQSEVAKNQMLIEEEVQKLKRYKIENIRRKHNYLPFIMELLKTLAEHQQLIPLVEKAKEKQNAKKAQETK
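Signal – fluorescence, ex 355 nm, em 460 nm · System – Proteasome-bound UCH37 · Input – 0.15 nM proteasome as dispensed · Timing – 30 min preincubation with enzyme, 25 min cleavage at room temperature · Read-out basis – percent inhibition of cleavage signal versus uninhibited and no-proteasome wells · Medium – Tris-HCl pH 7.4 with ATP-MgCl2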
The depositor's hits bear a star; ? = inconclusive; · = no result given. No enrichment for hits; 4.3% or so of the library scored in one or more.

| Molecule | Bfl-1 A1 inh | UCH37 DUB inh | B2AR ag | T cruzi repl | Calb FLC | Beta apoptosis | LANA-H2A inh | RanGTP-Impb inh |
| --- | --- | --- | --- | --- | --- | --- | --- | --- |
| COc1ccccc1N1CCN(/N=C/c2ccc(C(=O)O)cc2)CC1 | -2.1 | · | 3 | -9 | 2 | -11 | -9.5 | -1.2 |
| Cc1nc(N2CCN(c3ccccc3)CC2)[nH]c(=O)c1Cc1ccccc1 | 0.7 | 3.6 | 6 | -8 | 1 | -2 | -0.2 | 8.4 |
| Fc1ccc(-c2csc(Nc3ccccn3)n2)cc1 | -2.7 | 4.1 | 7 | 29 | -12 | 4 | -0.7 | 5.9 |
| CCOC(=O)c1c(NC(=O)c2cc(-c3ccc(O)cc3)on2)sc(C(C)=O)c1C | -0.4 | 1.1 | 5 | -2 | 3 | 27 | 4.7 | -1.6 |
| O=C(/C=C/c1ccc(O)c(O)c1)NC(=O)c1ccccc1O | -0.1 | 12 | -4 | -40 | -9 | · | 5.6 | 2.2 |
| O=C(COC(=O)c1cc(Br)ccc1O)Nc1ccc2c(c1)OCCO2 | -0.5 | -24 | 0 | -7 | -4 | 0 | · | 4.1 |
| COc1ccc(S(=O)(=O)N2CCOCC2)cc1NC(=O)Cc1sc(C)nc1-c1ccc(F)cc1 | -0.5 | · | -6 | -6 | 1 | 0 | 0.1 | 2.5 |
| NC(=O)[C@H]1CC2(CC(c3cccc(NC(=O)[C@H]4CCC(=O)N4)c3)=NO2)CN1C(=O)CC(c1ccccc1)c1ccccc1 (stereo not given in full) | 0.3 | 4.9 | · | -10 | 14 | -14 | 3.7 | -0.5 |
| CC1(C)O[C@@H]2[C@H](O1)[C@@H](CO)O[C@H]2n1c(N2CCCCC2)nc2c(N)ncnc21 | -0.3 | 0.4 | 1 | · | · | -7 | 6.7 | · |
| CN(C)c1ccc(/C=C(\Cl)c2nc3ccccc3s2)cc1 | -7.6 | -3.2 | -19 | · | · | 4 | 4.4 | · |
| CCOC(=O)C1(CCc2ccccc2)CCN(C(=O)c2cc(C)nc(C)n2)CC1 | 0.2 | 1.7 | 9 | -19 | 2 | -8 | 19 | 0.2 |
| Cc1ccc(CNS(=O)(=O)N(C)C)cc1 | 0.4 | 6.0 | -1 | -6 | -12 | -2 | 6.2 | -0.1 |
| Cc1cc2nc(CCN3CCOCC3)n(S(=O)(=O)c3ccc(C(C)(C)C)cc3)c2cc1C | 0.2 | 2.0 | -13 | 0 | -14 | -5 | 0.2 | 2.0 |
| COc1ccccc1OCc1ccc(C(=O)N2CCN(C(=O)c3ccco3)CC2)cc1 | 0.2 | 5.2 | 2 | 0 | -6 | 3 | 3.1 | -2.0 |
| NC(=O)CCN(Cc1ccccc1)S(=O)(=O)c1ccccc1 | 0.4 | 2.1 | 1 | -1 | -2 | 7 | -5.3 | -0.1 |
| Cc1c(C(=O)NCCc2ccccc2)oc2ccc(S(=O)(=O)N3CCOCC3)cc12 | -0.5 | 5.6 | 4 | 15 | 60 | 5 | -0.1 | -1.4 |
| O=C(COC(=O)COc1ccccc1F)Nc1ccc2c(c1)OCO2 | 2.3 | -0.6 | 2 | · | · | -10 | 0.7 | · |
| CCCCNC(=O)C1CC(=O)N(c2ccc(OC)cc2)C1c1ccc(OC)cc1 (stereo not given) | 0.0 | 0.2 | 7 | 0 | -3 | -9 | -0.2 | 0.3 |
| Cc1cc(Cl)ccc1C(=O)C1CCCN(C(=O)c2cc(C(C)C)no2)C1 (stereo not given) | 2.0 | 6.3 | -7 | 27 | ? | -3 | -4.3 | -4.6 |
| CCCCn1c(N)c(N(C)C(=O)C2CC(=O)N(Cc3ccco3)C2)c(=O)[nH]c1=O (stereo not given) | -0.7 | 4.1 | -4 | · | · | 0 | 3.6 | · |
| COc1ccc(NC(=O)CCN2C(=O)C3CC=C(Cl)CC3C2=O)cc1 (stereo not given) | 0.0 | 5.7 | -3 | -12 | -15 | 1 | 0.5 | ? |
| N/C(CN1CCSCC1)=N\OCc1c(F)cccc1Cl | 0.0 | 1.0 | 11 | -5 | 2 | -11 | -3.8 | 3.5 |
| CCOc1ccc(N2CC(C(=O)NCCc3ccccc3)CC2=O)cc1 (stereo not given) | 0.2 | 0.3 | -3 | -8 | 1 | 4 | 11 | 1.4 |
| COc1ccc(C2C(C(=O)Nc3cc(C)on3)c3ccccc3C(=O)N2C)cc1OC (stereo not given) | 1.1 | 1.0 | 1 | · | · | 0 | 4.2 | · |
| COc1ccc(OC)c(C2C(C#N)=C(N)Oc3cc(N)ccc32)c1 (stereo not given) | -0.4 | -0.4 | 7 | -15 | ? | -4 | -1.7 | 47* |
| CCn1c(=O)c(C(=O)NCc2ccccc2)c(O)c2ccccc21 | 0.3 | 4.7 | 1 | 0 | -8 | -1 | 0.8 | -3.4 |
| CN(N=Nc1ccc([N+](=O)[O-])cc1)c1ccccc1 | -2.0 | 2.4 | 0 | 7 | -42 | -3 | 1.3 | -0.3 |
| Cc1cc(C)n(-c2nnc(C)n2/N=C/c2ccco2)n1 | -0.5 | · | 0 | -1 | 7 | -6 | -2.1 | -0.3 |
| Cn1nnnc1Sc1ncnc2scc(-c3cccs3)c12 | 0.0 | 2.8 | 14 | · | · | -84 | 1.6 | · |
| O=C(c1ccccc1-c1ccccc1)N1CCCCC1 | 0.0 | 2.0 | -3 | -9 | 6 | -8 | -2.8 | -3.3 |

More entries follow:
| Molecule | Bfl-1 A1 inh | UCH37 DUB inh | B2AR ag | T cruzi repl | Calb FLC | Beta apoptosis | LANA-H2A inh | RanGTP-Impb inh |
| --- | --- | --- | --- | --- | --- | --- | --- | --- |
| O=C(COC(=O)c1cccs1)Nc1cccc(S(=O)(=O)NC2=NCCCCC2)c1 | 0.8 | 0.9 | 2 | -17 | -11 | -7 | -0.3 | -3.9 |
| Cc1cc(NC(=O)COC(=O)CCS(=O)(=O)c2ccc(Cl)cc2)no1 | -0.4 | 5.7 | -8 | -6 | 1 | -5 | 5.1 | -2.1 |
| Oc1ccc(C=NC2CCCCC2)c(O)c1 | 0.1 | 11 | 5 | 15 | 21 | -7 | 5.8 | -1.1 |
| O=c1oc2ccc(C#CC3(O)CCCCC3)cc2cc1-n1cc(C2(O)CCCCC2)nn1 | 1.0 | -8.5 | -2 | · | · | 0 | -0.6 | · |
| O=C(COC(=O)c1ccccc1NC(=O)c1ccco1)NCc1ccc2c(c1)OCO2 | -0.5 | -6.1 | -5 | -6 | -1 | -1 | 2.4 | -1.9 |
| O=C1CC(c2cc(F)ccc2F)c2cc3c(cc2N1)CCC3 (stereo not given) | 0.0 | 6.7 | 5 | -11 | 21 | -1 | -7.2 | 6.8 |
| CCn1c(C)nc2cc(C(=O)NNC(=S)Nc3ccc(Cl)cc3)ccc21 | 0.3 | -0.1 | -1 | 2 | -5 | 6 | -5.1 | 2.8 |
| CCSc1cc(N2CCCC2)nc(-c2cccc(C)c2)n1 | 0.4 | -15 | 1 | 13 | 8 | 9 | -9.0 | 3.0 |
| COc1cc(CC(=O)NNC(=O)c2cccs2)cc(OC)c1OC | -0.7 | 4.4 | -6 | · | · | -3 | -1.0 | · |
| CC(=O)Nc1ccc(NC(=O)Nc2ccccc2C)cc1 | -5.4 | -1.3 | 6 | -14 | 0 | -5 | 0.4 | 3.1 |
| N#Cc1ncc(C(F)(F)F)cc1Sc1ccccc1N | -0.6 | 6.1 | -3 | 4 | -9 | -3 | 3.5 | 4.0 |
| O=C1COc2ccc(-c3csc(NCC4CCCO4)n3)cc2N1 (stereo not given) | 0.8 | 6.1 | -2 | 5 | -8 | -3 | -1.9 | 4.1 |
| COC(=O)c1sccc1NC(=O)C1CC2CCC1C2 (stereo not given) | 1.3 | -0.7 | 4 | 0 | 3 | 7 | 2.8 | 2.2 |
| CC1CCCN(C(=S)NC2CCCC2)C1 (stereo not given) | -0.5 | 1.5 | -7 | -1 | -16 | 4 | -2.3 | -4.2 |
| N#CCC(=O)NCC1(c2ccccc2)CCCC1 | 0.2 | 0.7 | -3 | -5 | -6 | 1 | 0.9 | -4.2 |
| CC(=O)c1ccc(NC(=O)COC(=O)c2ccccc2N=Nc2ccc(N(C)C)cc2)cc1 | -0.6 | 5.6 | 6 | 12 | 7 | -9 | -0.6 | -3.0 |
| O=C(CN1CCN(c2ccccc2)CC1)N1CCc2ccccc21 | 0.7 | 1.4 | -9 | 8 | -12 | 1 | -3.3 | 2.7 |
| Cc1ccc(S(=O)(=O)/C(C#N)=C/c2ccccc2OCc2ccccc2)cc1 | -0.6 | -9.9 | -5 | 0 | 3 | · | -3.9 | 0.3 |
| O=C(C1=C(c2ccccc2)C(=O)c2ccccc2C1=O)c1ccccc1 | · | 6.2 | 24 | 50 | 33 | · | · | 1.4 |
| COC(=O)[C@@H]1C[C@@H](c2ccccc2)[C@H](C)C1(C)C | -0.7 | 1.2 | 2 | · | · | -4 | 0.1 | · |
| COc1ccccc1/C=N/NC(=O)CC(=O)Nc1ccc(Cl)c(Cl)c1 | 0.4 | · | -1 | 10 | -4 | 4 | 0.6 | 1.7 |
| COc1ccc(CNC(=O)CN(Cc2ccc(F)cc2)C(=O)CCC(=O)Nc2nccs2)cc1 | -0.2 | 3.3 | -4 | 7 | -1 | -14 | -1.0 | 3.0 |
| CCOc1ccc(C(=O)NNC(=O)c2cc(S(=O)(=O)N3CCOCC3)ccc2Cl)cc1 | -0.9 | -1.6 | -3 | · | · | -1 | -4.2 | · |
| CCCCNC(=O)O/N=C(\N)CS(=O)(=O)C(C)(C)C | -1.4 | · | 0 | -8 | -15 | -1 | -7.4 | 0.2 |
| CC(=O)Nc1ccc(S(=O)(=O)NCc2nc(-c3ccc(C)cc3)no2)cc1 | 1.5 | 1.0 | -3 | -2 | -8 | -1 | -3.6 | 6.1 |
| O=C(OCC(=O)c1cccs1)c1cccc(C(=O)OCC(=O)c2cccs2)n1 | 0.6 | 1.4 | 6 | -26 | -7 | -4 | 1.0 | 1.6 |
| COC(=O)CSC1=C(C#N)C(c2ccsc2)CC(=O)N1 (stereo not given) | 0.4 | 3.2 | 11 | -10 | 1 | -13 | 0.6 | ? |
| O=C(CCN1C(=O)COc2ccccc21)NCCC1=CCCCC1 | 0.7 | 2.9 | -15 | 4 | -6 | -2 | -5.1 | 1.3 |
| CC(NC(=O)Cc1cccs1)c1ccc2c(c1)OCO2 (stereo not given) | 0.3 | 0.5 | 19 | 5 | -29 | 3 | 1.4 | 2.1 |

Two entries from above, with each value named:
Compound: CCn1c(C)nc2cc(C(=O)NNC(=S)Nc3ccc(Cl)cc3)ccc21
  Bfl-1 A1 inh = 0.3 | UCH37 DUB inh = -0.1 | B2AR ag = -1 | T cruzi repl = 2 | Calb FLC = -5 | Beta apoptosis = 6 | LANA-H2A inh = -5.1 | RanGTP-Impb inh = 2.8
Compound: CCSc1cc(N2CCCC2)nc(-c2cccc(C)c2)n1
  Bfl-1 A1 inh = 0.4 | UCH37 DUB inh = -15 | B2AR ag = 1 | T cruzi repl = 13 | Calb FLC = 8 | Beta apoptosis = 9 | LANA-H2A inh = -9.0 | RanGTP-Impb inh = 3.0
